Screening data as filed in PubChem.
Mtb growth – M. tuberculosis H37Rv growth inhibitors, H37Rv strain (AID 1626) | M. tuberculosis H37Rv growth inhibition; higher % means a stronger effect | inhibition, % at 10 µM, or IC50 in µM where a hit was titrated | 220,000 tested, 0.95% active;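 active means confirmed in a dose series; inconclusive means inhibition above 80% but not taken into the dose series; inactive means below 80% or under 30% at every dose of the series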;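 further: bacteria incubated seven days before Alamar blue readout; 0% = bacteria only wells and 100% = bacteria with antibiotic wells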
Arbovirus anti – antivirals against arbovirus infection, primary screen, cell-based, full library, 10K replicate subset; arbovirus infection cell-based antiviral screen; inhibition, % at 10 µM; 200,000 tested, 0.37% active;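 active means inhibition from about 30%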;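 further: bluetongue infection of BSR cells; cell survival read as ATP light after 72 h; 0% = infected wells without compound and 100% = uninfected wells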
RecA intein inh – Mtb RecA intein splicing inhibitors, primary screen, biochemical, fluorescence, HTS | 290,000 tested, 0.75% active | inhibition, %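 (about 9 µM by stock and volumes)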 | Protein RecA (Mycobacterium tuberculosis (strain ATCC 25618 / H37Rv)), P9WHJ3 | cell-free RecA intein splicing; in the data active means inhibition above about 30%; inconclusive means no clear call, values can overlap the other calls;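 further: 0% = vehicle wells and 100% = reference inhibitor control wells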
Target sequence (P9WHJ3 whole entry, looked up): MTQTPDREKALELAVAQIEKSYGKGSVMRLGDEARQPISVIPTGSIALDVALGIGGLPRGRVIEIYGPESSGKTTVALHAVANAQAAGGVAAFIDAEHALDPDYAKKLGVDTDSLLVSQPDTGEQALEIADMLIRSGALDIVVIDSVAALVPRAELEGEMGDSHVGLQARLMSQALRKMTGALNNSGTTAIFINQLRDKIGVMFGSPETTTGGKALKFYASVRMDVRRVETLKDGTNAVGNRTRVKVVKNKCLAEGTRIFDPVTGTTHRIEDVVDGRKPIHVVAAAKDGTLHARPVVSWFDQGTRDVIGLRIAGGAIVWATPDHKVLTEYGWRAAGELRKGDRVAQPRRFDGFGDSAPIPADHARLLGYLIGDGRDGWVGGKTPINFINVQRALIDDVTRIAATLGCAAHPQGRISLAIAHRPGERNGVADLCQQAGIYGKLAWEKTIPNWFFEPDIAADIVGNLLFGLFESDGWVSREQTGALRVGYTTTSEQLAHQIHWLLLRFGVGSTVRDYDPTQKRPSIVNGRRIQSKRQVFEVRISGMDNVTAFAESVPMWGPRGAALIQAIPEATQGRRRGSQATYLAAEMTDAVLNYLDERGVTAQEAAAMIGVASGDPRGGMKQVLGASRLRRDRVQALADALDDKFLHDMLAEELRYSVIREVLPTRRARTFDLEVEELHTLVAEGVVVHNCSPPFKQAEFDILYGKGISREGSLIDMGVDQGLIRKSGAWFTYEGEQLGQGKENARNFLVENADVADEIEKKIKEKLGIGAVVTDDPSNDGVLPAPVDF
YopH inh – YopH tyrosine phosphatase inhibitors, primary screen, biochemical, fluorescence Ex485/Em525 | YopH tyrosine phosphatase [Yersinia enterocolitica] | AID 898, 2007 | 140,000 tested, 0.16% active | inhibition, %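 (about 10 µM by stock and volumes)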;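 active means inhibition of 50% or more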;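 further: controls were vehicle for no effect and minimum signal wells for full effect; inactives centre near -20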
Mtb betalactam – beta-lactam sensitization of Mtb H37Rv, H37Rv | M. tuberculosis H37Rv growth with meropenem, percent inhibition; hits of this screen are not shown here | inhibition, % at 25 µM | 330,000 tested, 0.27% active | AID 434955, 2010;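 active means about 74% or more and at least 40 points above the plate without the antibiotic, then above 30% in a dose series; inconclusive means first-round hits that could not be retested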;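 further: growth measured after seven days incubation then overnight dye step; 0% = bacteria only wells and 100% = bacteria with antibiotic; twin plates without the antibiotic show which effects depend on it; some results filed as inactive read as strong as hits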
Arbovirus anti repeat – further read-out of Arbovirus anti, marked with its call; inhibition, %; measured here: 10K subset replicate screen; many hits read low in the repeat;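 first of two repeat runs on a subset; 0% = infected and 100% = uninfected wells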
The depositor's hits bear a star; ? = inconclusive; nt = no result given. An excerpt; rates above refer to the full screens.

SMILES	Mtb growth	Arbovirus anti	RecA intein inh	YopH inh	Mtb betalactam	others
O=C(CCC(=O)N1CCN(S(=O)(=O)c2cccc(F)c2)CC1)c1cccs1	6%	11	-0.9	nt	-20
COc1ccc(C(=O)Nc2sc3c(c2C(=O)NCc2ccco2)CCCC3)cc1OC	-10%	4	-14	2	2
Fc1ccccc1N1CCN(C(c2ccncc2)c2nnnn2C2CCCC2)CC1 (stereo unspecified)	8%	4	-0.6	-16	0
Cc1ccnc(SCC(=O)N2CCC(C(N)=O)CC2)n1	-8%	0	0.6	-42	-1
COc1cc(NC(=O)CN(C)Cc2cccc(F)c2)c(C)cc1[N+](=O)[O-]	-7%	-2	5.9	nt	5
N#CC1=C(N)OC2=C(C(=O)CCC2)C1c1ccoc1 (stereo unspecified)	-11%	0	-0.6	nt	-1
CCOc1ccc2[nH]c3nc(SCC(=O)NCC4CCCO4)nnc3c2c1 (stereo unspecified)	nt	nt	-1.9	nt	0
O=C(NC1CC2CCCC(C1)N2S(=O)(=O)c1ccccc1)C1CCCCC1 (stereo unspecified)	7%	9	-1.2	-32	-5
COC(=O)c1ccc2[nH]c(C(C)(C)O)c(C)c2c1	nt	nt	-3.4	nt	-3
Cc1cc(C)cc(NC(=S)NN)c1	47%	10	-0.8	nt	nt
Cc1ccc2nc(N(CCCN(C)C)C(=O)c3ccc4ncsc4c3)sc2c1	nt	nt	-3.4	nt	-3
Cc1nn(C)cc1CNCc1ccc(OCC(O)CN(C)Cc2ccccc2)cc1 (stereo unspecified)	0%	-22	-1.8	nt	-9
O=C(/C=C/c1ccc2c(c1)OCCO2)c1ccc(O)cc1	10%	nt	5.0	nt	29
C#CCOCCOCCOCCNc1nc(N2CCN(C(=O)C([C@@H](C)CC)n3cc(C(N)COC(=O)C(F)(F)F)nn3)CC2)nc(N2CCN(C(=O)[C@H](Cc3ccc(O)cc3)n3cc(C(N)[C@H](C)CC)nn3)CC2)n1 (stereo partly specified)	-7%	nt	-2.6	nt	-13
C=CCSc1nc2sc3c(c2c(=O)n1CC=C)CCc1ccccc1-3	nt	18	-1.9	-23	47
Cc1cc(C)n2nc(C(=O)N3CCCC(Nc4ccc(C(C)C)cc4)C3)cc2n1 (stereo unspecified)	nt	nt	-0.8	nt	-2
CC(=O)c1c(C)cc(C)c(CSc2ccccn2)c1C	nt	nt	2.3	nt	2
Cc1cc2oc(C(=O)N(Cc3ccccc3)C3CCS(=O)(=O)C3)cc(=O)c2cc1Cl (stereo unspecified)	-6%	5	0.4	-6	-3
CC(C)Oc1cc(N)c(Cl)cc1Cl	-5%	19	0.4	nt	-9
O=C(NCc1nc(-c2ccc(C(F)(F)F)cc2)no1)Nc1ccc(OC(F)(F)F)cc1	-5%	nt	1.4	nt	4
Cc1ccccc1-n1ncc2c(SCC(=O)NCc3cccs3)ncnc21	-6%	-18	-0.6	-15	-4
CN(C1CCCCC1)S(=O)(=O)c1ccc(C(=O)N2CCN(c3nc4ccccc4s3)CC2)cc1	-3%	9	-0.5	-14	-4
O=C(Cc1c(F)c(F)c(F)c(F)c1F)Nc1nc(-c2ccccc2)cs1	nt	nt	16	nt	98
CCc1ccc(C(=O)CSc2nnc(C)c(=O)[nH]2)cc1	-10%	1	-1.2	-5	-5
CCCCn1c(N)c(N(CCOC)C(=O)c2cccc(S(=O)(=O)N(C)c3ccccc3)c2)c(=O)[nH]c1=O	nt	nt	3.0	nt	-1
Continued.
SMILES	Mtb growth	Arbovirus anti	RecA intein inh	YopH inh	Mtb betalactam	others
CCc1ccccc1NC(=O)CCCN1C(=O)c2cccnc2C1=O	nt	nt	-1.0	nt	2
COc1cc(C(=O)OCCN2CCOCC2)ccc1O	-3%	15	-3.2	-14	-3
OC1(c2cccc(C(F)(F)F)c2)CCN(Cc2nnnn2Cc2ccccc2)CC1	-5%	18	-1.6	nt	-3
O=C(CCNC(=O)c1ccc(Br)cc1)NNC(=O)c1ccccc1O	nt	nt	5.2	nt	-4
CCOc1ccc2c(c1)nc(C)n2C	3%	nt	nt	nt	-5
COCC1CCN(Cc2cn[nH]c2-c2ccc(OC)c(F)c2)C1 (stereo unspecified)	-12%	nt	-2.6	nt	7
O=C(NN1CCOCC1)c1cc(-c2ccc(Br)cc2)nc2ccccc12	7%	-4	-2.6	-15	3
CCC(=O)Nc1ccc(Br)cn1	1%	-7	nt	nt	0
COCC1=C(C(=O)OC)C(c2ccco2)n2ncnc2N1 (stereo unspecified)	-6%	nt	1.8	nt	-8
CC(OC(=O)c1cccs1)C(=O)NCCc1ccccc1 (stereo unspecified)	nt	nt	0.4	nt	-13
CC1CCN(C(=O)CCc2nc3cc(S(=O)(=O)N(C)C)ccc3n2C)CC1	-17%	13	2.8	-26	-3
O=C(CCC1COc2ccccc2O1)NC1CCCCC1 (stereo unspecified)	-8%	-2	3.0	22	-3
CC1CN(C(=O)CCC(=O)NCCCc2ccccc2)c2ccccc2O1 (stereo unspecified)	nt	nt	-4.1	nt	5
Cc1nc(S(=O)(=O)c2cccc(Cl)c2)nc2c1CCC2	nt	1	0.3	-9	-13
COc1cc(OC)c(C(=S)N2CCCC2)cc1OC	nt	nt	-3.0	nt	-4
CCC(C)(C)NC(=O)C(c1ccc(OC)cc1)N(Cc1ccc(OC)cc1)C(=O)CCC(=O)Nc1cc(C)on1 (stereo unspecified)	nt	nt	-0.6	nt	5
O=[N+]([O-])c1cc(-c2cnc3ccccc3n2)ccc1Oc1ccc(F)cc1	0%	-7	1.5	-2	1
Cc1ccc(C(=O)NCCCNc2ccccc2[N+](=O)[O-])cc1	9%	-4	2.0	nt	3
Cc1cc(C)c2nc(-c3ccncc3)cc(C(=O)N3CCN(Cc4ccccc4Cl)CC3)c2c1	nt	nt	20	nt	?
CCSCc1nnc(SCC(=O)Nc2nc(C)cs2)n1C	2%	4	-1.1	nt	-7
O=C(OCC(=O)N1CCCC1)c1cc(Cl)ccc1Cl	nt	nt	-1.6	nt	97
COc1ccc(CNCc2ccc3ccccc3c2)c(OC)c1	nt	nt	1.4	nt	1
COc1ccc(-n2c(SCC(=O)Nc3ccc(C(=O)O)cc3)nnc2-c2ccccc2)cc1OC	nt	nt	1.0	nt	-5
O=C(CSc1cn(CCNC(=O)c2cccs2)c2ccccc12)NCC1CCCO1 (stereo unspecified)	3%	7	2.4	-22	-3	Arbovirus anti repeat=-4
O=C(CN(Cc1ccc(Br)cc1)S(=O)(=O)c1ccccc1)NCc1cccnc1	nt	nt	2.1	nt	-4

Some of these compounds in order of molecular weight, falling.
SMILES	Mtb growth	Arbovirus anti	RecA intein inh	YopH inh	Mtb betalactam	others
O=C(NN1CCOCC1)c1cc(-c2ccc(Br)cc2)nc2ccccc12	7%	-4	-2.6	-15	3
O=C(CCNC(=O)c1ccc(Br)cc1)NNC(=O)c1ccccc1O	nt	nt	5.2	nt	-4
O=C(OCC(=O)N1CCCC1)c1cc(Cl)ccc1Cl	nt	nt	-1.6	nt	97

Next records:
SMILES	Mtb growth	Arbovirus anti	RecA intein inh	YopH inh	Mtb betalactam	others
Cc1ccccc1OCCCC(=O)Nc1ccccc1C(F)(F)F	8%	-5	-0.3	5	-3
Cc1cc(C)cc(NC(=O)C2C3C=CC4(O3)C2C(=O)N(CCCN(C)C)C4C(=O)NC2CCCC(C)C2C)c1 (stereo unspecified)	nt	nt	0.4	nt	-8
CCOC(=O)c1c(S(=O)(=O)Nc2ccccn2)c(C)n(C)c1C	nt	nt	-0.2	nt	3
COc1ccc(-c2noc(CN(C(=O)c3c(-c4ccccc4Cl)noc3C)C(C)C)n2)cc1	9%	4	6.0	-20	-4
O=C(c1cc(=O)[nH]c2ccccc12)N1CCN(c2cccc(C(F)(F)F)c2)CC1	3%	26	3.1	nt	-5
Nc1nnn(CC(=O)N/N=C/C=C/c2ccccc2)n1	-1%	nt	-0.2	nt	20
COc1ccc(C2CC(=O)c3cnc(NC(=O)c4cc(OC)cc(OC)c4)nc3C2)cc1 (stereo unspecified)	9%	5	3.4	4	4
Cc1nc(NC(=S)NC(=O)c2cccs2)sc1C(=O)N(C)C	-5%	-8	0.7	-29	-2
O=C(N/N=C/c1ccccc1O)C1CC(=O)N(c2ccc(Cl)cc2)C1 (stereo unspecified)	nt	nt	-1.3	nt	3
CC(=O)Nc1ccc(NC(=O)COc2ccc([N+](=O)[O-])cc2)cc1	8%	-2	-4.6	nt	-10
COc1ccc(CNC(=O)CCc2nnc3ccc(NCCCN4CCCC4=O)nn23)cc1	nt	nt	0.0	nt	-5
O=S(=O)(NCCc1csc(-c2cccnc2)n1)c1ccc(F)cc1	nt	nt	0.1	nt	3
O=C(CSc1n[nH]c(-c2cccnc2)n1)Nc1cccc(Cl)c1	nt	nt	0.0	nt	-8
COc1ccc(OC)c(NC(=O)CC(NC(C)=O)c2ccccc2)c1 (stereo unspecified)	-5%	3	-0.1	nt	-3
O=C(c1cc2ccccc2o1)N1CCOCC1	nt	nt	1.8	nt	2
Cc1ccc(NC(=S)NCCc2ccccc2)nc1	-8%	-1	0.3	nt	7
COCCNC(=O)CN(C)S(=O)(=O)c1ccc(Br)cc1	-5%	1	-2.4	-11	0	Arbovirus anti repeat=-4
CCn1cc(C(=O)NC(=S)Nc2sc3c(c2C(=O)OC)CCCCCC3)cn1	-4%	-4	-1.7	2	5
CCOC(=O)CCc1c(C)c2ccc3c(c2oc1=O)CN(CCCO)CO3	nt	nt	-192	nt	-3

Arranged by number of heavy atoms (smallest number first): some entries from above.
SMILES	Mtb growth	Arbovirus anti	RecA intein inh	YopH inh	Mtb betalactam	others
O=C(c1cc2ccccc2o1)N1CCOCC1	nt	nt	1.8	nt	2
Cc1ccc(NC(=S)NCCc2ccccc2)nc1	-8%	-1	0.3	nt	7
COCCNC(=O)CN(C)S(=O)(=O)c1ccc(Br)cc1	-5%	1	-2.4	-11	0	Arbovirus anti repeat=-4
Cc1nc(NC(=S)NC(=O)c2cccs2)sc1C(=O)N(C)C	-5%	-8	0.7	-29	-2
O=C(CSc1n[nH]c(-c2cccnc2)n1)Nc1cccc(Cl)c1	nt	nt	0.0	nt	-8
CC(=O)Nc1ccc(NC(=O)COc2ccc([N+](=O)[O-])cc2)cc1	8%	-2	-4.6	nt	-10
COc1ccc(OC)c(NC(=O)CC(NC(C)=O)c2ccccc2)c1 (stereo unspecified)	-5%	3	-0.1	nt	-3
CCOC(=O)CCc1c(C)c2ccc3c(c2oc1=O)CN(CCCO)CO3	nt	nt	-192	nt	-3
CCn1cc(C(=O)NC(=S)Nc2sc3c(c2C(=O)OC)CCCCCC3)cn1	-4%	-4	-1.7	2	5
O=C(CN(Cc1ccc(Br)cc1)S(=O)(=O)c1ccccc1)NCc1cccnc1	nt	nt	2.1	nt	-4
O=C(CSc1cn(CCNC(=O)c2cccs2)c2ccccc12)NCC1CCCO1 (stereo unspecified)	3%	7	2.4	-22	-3	Arbovirus anti repeat=-4
COc1ccc(C2CC(=O)c3cnc(NC(=O)c4cc(OC)cc(OC)c4)nc3C2)cc1 (stereo unspecified)	9%	5	3.4	4	4
COc1ccc(CNC(=O)CCc2nnc3ccc(NCCCN4CCCC4=O)nn23)cc1	nt	nt	0.0	nt	-5
COc1ccc(-n2c(SCC(=O)Nc3ccc(C(=O)O)cc3)nnc2-c2ccccc2)cc1OC	nt	nt	1.0	nt	-5
Cc1cc(C)cc(NC(=O)C2C3C=CC4(O3)C2C(=O)N(CCCN(C)C)C4C(=O)NC2CCCC(C)C2C)c1 (stereo unspecified)	nt	nt	0.4	nt	-8
